VDR inh = blocks the human vitamin D receptor; P11473; VDR-SRC2-3 peptide fluorescence polarization, 2 h; Potency, µM, without a hit: max response, negative = inhibition, actives largely listed as inhibitors; actives 0.93% (n = 400,000); active = well fitted inhibition curve with a large enough effect; inconclusive = small, poorly fitted or top-dose-only effect, or another doubt; inactive = no such curve, though single readings can be large or run the other way; note: series mostly up to about 120 µM
Target sequence (P11473 whole entry, looked up): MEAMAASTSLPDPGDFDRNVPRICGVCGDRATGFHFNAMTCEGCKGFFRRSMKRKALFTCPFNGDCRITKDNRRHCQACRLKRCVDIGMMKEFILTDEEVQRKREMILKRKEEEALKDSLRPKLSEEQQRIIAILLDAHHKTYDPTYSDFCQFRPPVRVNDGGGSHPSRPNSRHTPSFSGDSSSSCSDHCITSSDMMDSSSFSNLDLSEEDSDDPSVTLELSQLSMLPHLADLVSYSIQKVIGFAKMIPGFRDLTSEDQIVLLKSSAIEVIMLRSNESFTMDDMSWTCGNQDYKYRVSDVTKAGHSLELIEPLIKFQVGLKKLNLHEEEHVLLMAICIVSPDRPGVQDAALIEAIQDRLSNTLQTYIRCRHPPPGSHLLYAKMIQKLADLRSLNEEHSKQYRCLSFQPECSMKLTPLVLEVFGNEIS
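Compounds are added to VDR with labelled SRC2-3 coactivator peptide and held 2 h at room temperature. Inhibition of the VDR–peptide interaction is then read as a change in fluorescence polarization.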
An asterisk follows results filed as active; ? = inconclusive; & = joins results of further samples; [ ] = dose if it differs, or a comment. % is set by controls: 0 for no effect and ±100 for the full control effect; potency is the fitted concentration of half-maximal effect.

VDR inh | SMILES
-14.7% | Cc1ccc(C)c(-c2nnc(OCC(=O)Nc3cc(C)on3)c3ccccc23)c1
-9.9% | O=C(N=NC(=O)c1ccco1)c1ccc2c(O)n(N3C(=O)c4ccccc4C3=O)c(O)c2c1
-13.2% | CC(=O)Nc1ccc(N(CC(O)Cn2c3ccccc3c3ccccc32)S(=O)(=O)c2ccc(C)cc2)cc1 (centres undefined)
-19.2% | COC(=O)c1ccc(C2/C(=C(\O)c3ccc4c(c3)OCCO4)C(=O)C(=O)N2c2nnc(C)s2)cc1 (centres undefined)
1.9% | Cc1nnsc1NC(=O)OCc1ccc(C(C)(C)C)cc1
0.2% | Cc1[nH]nc(N=CC2=C(O)CC(c3ccco3)CC2=O)c1-c1ccc(Cl)cc1 (centres undefined)
? | Cc1noc(NS(=O)(=O)c2ccc(NC(=O)C(F)(F)F)cc2)c1C
-9.5% | CC(=O)C1=C(O)C(=O)N(CCCn2ccnc2)C1c1ccc(Cl)cc1 (centres undefined)
-10.2% | CCC(=O)N1CCc2cc(Br)cc(S(=O)(=O)CCC(=O)NCC3CCCO3)c21 (centres undefined)
3.1% | Cc1ccc(NC(=O)COc2cccc(-n3cnnn3)c2)cc1S(=O)(=O)N1CCOCC1
3.8% | CC(C)c1ccc(N(CC(=O)NC2CCCCC2)C(=O)CNC(=O)c2ccco2)cc1
-0.5% | Cc1ccc(C(=O)NCCNS(=O)(=O)c2ccccc2)cn1
-15.8% | Cc1ccc(N2C(N)=C(C#N)C(c3cc(CN4CCOCC4)cs3)C3=C2CC(C)(C)CC3=O)cc1 (centres undefined)
3.8% | COc1cc(NC(=O)COC(=O)c2n[nH]c3ccccc23)c(C)cc1[N+](=O)[O-]
-15.6% | CCCCN(Cc1ccc(C(=O)N[C@H](C(=O)O)C(C)C)cc1)C(=O)C(c1ccccc1)c1ccccc1
0.1% | Cc1ccc(NS(=O)(=O)N2CCOCC2)cc1
-7.6% | O=C(Nc1nnc(-c2cccs2)o1)c1cc(-c2ccccc2)nc2ccccc12
-4.9% | CN(C(=O)CSc1ccccc1C(=O)O)C1CCCCC1
96.9%[activator] | COc1ccc(-n2nc(C(=O)NCC(=O)Nc3cccc(Cl)c3)c3ccccc3c2=O)cc1
20.6% | O=S(=O)(c1cccc(Cl)c1)N1CCSc2ccccc21
6.2% | COCCCNC(=O)CCc1nc2cccnc2n1Cc1ccc(OC)cc1
7.6% | CCCCCCCC(=O)NC1=NC(=O)C(C)(C)S1
9.0% | CC1CC(N(C(=O)c2ccco2)c2ccccc2)c2ccccc2N1C(=O)c1ccco1 (centres undefined)
15.2% | CC(=O)C(Cc1ccccc1)NC(=O)CN(C)Cc1ccccc1Cl (centres undefined)
1.4% | CC(C)c1ccc(C(=O)NCCCN2CCOCC2)cc1
10.8% | CC(=O)N1CCCC1c1nc2ccccc2n1Cc1cccc(C)c1 (centres undefined)
11.5% | O=C(NCCc1ccc(F)cc1)NC12CC3CC(CC(C3)C1)C2
-10.2% | COc1ccc(CNC(=O)CCNS(=O)(=O)c2ccc(C)cc2)cc1
8.3% | CS(=O)(=O)N1CCCCC1CCN1CCCCC1 (centres undefined)
-10.7% | O=C(COC(=O)CNC(=O)c1ccc(Br)cc1)NCCC1=CCCCC1
11.3% | Cc1ccc(OC(=O)c2ccc3snnc3c2)cc1
19.8% | CC1Cc2ccccc2N1C(=O)CSc1nnc(-c2ccc(S(=O)(=O)N3CCCC3)cc2)o1 (centres undefined)
-1.2% | COCCCn1c(C(=O)N2CC(C)OC(C)C2)cc2c(=O)n3ccccc3nc21 (centres undefined)
15.3% | Cc1ccc(C(=O)O)cc1NC(=S)NC(=O)Cc1ccccc1
12.4% | c1cncc(CSc2nnc3ccc(-c4ccco4)nn23)c1
-1.9% | CCOC(=O)c1cnn(-c2nc(OCC)cc(OCC)n2)c1C
8.0% | CC1=NNC(=O)C1Cc1ccccc1C (centres undefined)
-19.3% | CCCC(=O)N(CCN1CCOCC1)c1nc2cc(C)c(C)cc2s1
-0.7% | O=C(C1COc2ccccc2O1)N1CCN(S(=O)(=O)c2cc(F)ccc2F)CC1 (centres undefined)
-17.3% | O=S(=O)(NCc1cn2ccccc2n1)c1cc(F)ccc1F
-25.4% | CC(=O)N/N=C/c1c(C)[nH]n(-c2ccccc2)c1=O
-1.7% | CC(C)(C)c1ccccc1OCC(=O)Nc1ccccc1C(=O)NCc1cccnc1
-0.2% | COc1ccc(OCC(=O)Nc2ccc(C(=O)Nc3ccccc3C(=O)O)cc2)cc1
-4.8% | CCN1CCC(Nc2ccnc3cc(Cl)ccc23)CC1
0.6% | CCn1c2ccccc2c2cc(NC(=O)CN(C)CC(=O)Nc3ccc(N4CCOCC4)cc3)ccc21
-0.4% | O=C(CC(=O)Nc1ccc(Cl)cc1)N/N=C\c1cccc(F)c1
-5.3% | O=C(O)CCC(=O)Nc1sc2c(c1C(=O)NCc1ccccc1)CCCC2
-9.8% | Cc1cc(Nc2ccccc2)nc(NCc2ccccc2)n1
-2.5% | Cc1cccc(CNC(=O)c2cnc3sc(N4CCCCC4)nn3c2=O)c1
-14.6% | COCCNc1ccc(N2C(=O)C3CCCCC3C2=O)cc1[N+](=O)[O-] (centres undefined)

Remaining list, next part
VDR inh | SMILES
-11.8% | COc1cc(C(=O)NCc2ccc3[nH]c(C)cc3c2)cc(OC)c1OC
8.91µM* | O=C1C=C(O)c2ccccc2C1=O
-36.0% | CCNC(=O)Oc1ccc[nH]c1=O
? | CCc1cccc(NC(=O)C2CCCN(S(=O)(=O)c3cccnc3)C2)c1 (centres undefined)
9.6% | CC(C)(C)C(=O)Nc1cc(NC(=O)C(C)(C)C)cc(C(=O)Nc2c[nH]c(=O)[nH]c2=O)c1
31.8%[activator] | Cc1ccccc1NC(=O)Cc1nnc(NC(=O)Nc2ccccc2F)s1
-22.5% | COc1ccc(N2CCN(S(=O)(=O)c3ccc4c(c3)N(C(C)=O)CCO4)CC2)cc1
10.1% | COCc1[nH]c(=S)[nH]c(=O)c1C
-9.1% | N#CC1(NC(=O)Cn2cc(C(F)(F)F)cc(Cl)c2=O)CCCCC1
6.7% | COc1cc(NC(=O)CN2C(=O)CCc3cc(Br)ccc32)cc(OC)c1OC
8.6% | CS(=O)(=O)N1CCN=C1SCc1ccccc1
-7.0% | Cc1ccccc1NS(=O)(=O)c1ccc(C(=O)NNC(=O)c2ccccc2O)cc1
24.8% | Cc1ccccc1C(=O)NC1CCN(CC(=O)NC2CCCCC2)CC1
-16.0% | CC(C)(C)c1ccc(C(=O)NC(=O)COC(=O)c2ccc(Br)o2)cc1
-12.9% | O=C(Nc1nnc(CCc2ccccc2)s1)c1ccco1
10.5% | Cc1ccc(-n2ncc(C(=O)N3CCN(c4ccccn4)CC3)c2C2CCN(C(=O)OC(C)(C)C)CC2)cc1C
6.2% | CN1CCN(CCCCC(=O)c2ccccc2)CC1
2.9% | COc1ccc(CC(=O)Nc2ccc(C(N)=O)cc2)cc1
2.9% | COc1cc(N=Cc2c(CO)cnc(C)c2O)cc(OC)c1OC
? | COc1ccc(/C=N/NC(=O)/C(=C/c2ccccc2)CCO)cc1
-1.5% | O=C(NCC(c1ccco1)N1CCCCC1)c1ccc(OCc2ccccc2)cc1 (centres undefined)
-15.2% | CCn1ncc(N2CCOCC2)c(Cl)c1=O
-15.6% | Cc1ccccc1N=C1c2ccccc2C(=O)C1[N+](=O)[O-] (centres undefined)
-1.3% | Cc1cc(OCC(=O)N2CCOCC2)ccc1NC(=O)C1CCCCC1
9.9% | CCc1c(C)nc2cc(-c3ccc(OC)cc3)[nH]n2c1=O
2.2% | CC(=O)c1ccc(NC(=O)CCOc2cc(C)ccc2C)cc1
10.4% | O=C(Nc1ccccc1C(=O)N1CCN(Cc2ccccc2)CC1)c1ccc(F)cc1
-0.7% | COc1ccccc1C(=O)Nc1cccc(C(=O)OCc2cc(=O)n3c4c(sc3n2)CCCC4)c1
0.5% | Cc1c(NC(=O)c2cc(-c3ccc(F)cc3)nc3ccccc23)c(=O)n(-c2ccccc2)n1C
-2.2% | O=C(NCc1ccc(Cl)cc1)C1CCCN(C(=O)c2cnn(-c3ccc(F)cc3)c2-n2cccc2)C1 (centres undefined)
14.8% | Cc1cccc(C(=O)NC(=O)Nc2ccc(-c3cc(C(F)(F)F)nn3-c3ccccc3)cc2)c1
1.9% | COc1ccc(C(=O)NCCn2ccc3ccccc32)c(OC)c1
-17.5% | CCCC1Cc2c(sc3ncnc(N)c23)CO1 (centres undefined)
1.1% | O=[N+]([O-])c1cc(Br)ccc1NS(=O)(=O)c1ccccc1
2.2% | Cc1oc2ccc(OCc3ccc(F)cc3Cl)cc2c1C(=O)O
-5.2% | COc1ccc2oc(=O)c(C(=O)NCc3ccc(F)cc3)cc2c1
-4.9% | COc1cccc(/C=N/NC(=O)C(=O)NCc2ccco2)c1OC
7.8% | CCOC(=O)C(Cc1c(F)cccc1Cl)c1ccnc2nc(N)nn12 (centres undefined)
11.0% | COc1cccc(NC(=O)c2ccccc2-c2ccccc2C(=O)O)c1
-10.9% | CCOC(=O)c1ccc(NS(=O)(=O)c2cc(-c3nnnn3CC)ccc2OC)cc1
2.6% | COc1ccc(C(=O)N2CCC3(CCN(C(=O)Nc4cccc(C#N)c4)CC3)CC2)cc1
8.4% | COc1ccc(C2C(C(=O)NCc3ccco3)CCC(=O)N2c2ccc(OC)cc2)cc1 (centres undefined)
2.2% | CCn1c(-c2cc(-c3ccc(C)cc3)nc3ccccc23)n[nH]c1=S
0.2% | COc1ccc(O)c(C=Nc2cc(C)on2)c1
4.6% | Cc1cccc(N(C)S(=O)(=O)c2csc(C(N)=O)c2)c1
-2.0% | COCCNCC(=O)Nc1nc(C)cs1
-20.4% | Cc1ccccc1NC(=O)N1CCN(S(=O)(=O)c2ccccc2)CC1
-18.3% | COc1ccc(NC(=O)CCS(=O)(=O)c2cc3c(cc2C)NC(=O)CO3)cc1
28.2µM* | COC(=O)COc1ccc(-c2nccc(-c3ccc(Br)cc3)n2)cc1
-11.6% | COc1ccc(-n2nc3cc(C)c(NC(=O)COc4cccc(C)c4)cc3n2)cc1

Ordered by SMILES length (lowest first): part of the list above
VDR inh | SMILES
0.2% | COc1ccc(O)c(C=Nc2cc(C)on2)c1
4.6% | Cc1cccc(N(C)S(=O)(=O)c2csc(C(N)=O)c2)c1
-5.2% | COc1ccc2oc(=O)c(C(=O)NCc3ccc(F)cc3)cc2c1
-20.4% | Cc1ccccc1NC(=O)N1CCN(S(=O)(=O)c2ccccc2)CC1

(further entries)
VDR inh | SMILES
-15.9% | COc1ccc(S(=O)(=O)N2CCN(c3cnccn3)CC2)cc1
0.2% | COC(=O)c1ccc(COc2ccc(-c3nnn(CC(=O)NC(C)(C)C)n3)cc2)cc1
8.91µM* | O=C(CCS(=O)(=O)c1nc(-c2ccc3c(c2)OCO3)cc(C(F)(F)F)n1)Nc1ccc(F)c(Cl)c1
-12.6% | N/C(=N\OC(=O)CCC1CCCC1)c1ccc(Br)cc1
9.4% | CCOC(=O)c1cc(NC(=O)c2cnccn2)cc(C(=O)OCC)c1
5.8% | O=C(Cc1ccc(S(=O)(=O)N2CCOCC2)s1)NCCOc1ccccc1F
3.2% | Oc1oc(-c2ccccc2Br)nc1C=Nc1ccc(Br)cn1
-5.8% | O=C(c1ccccc1Oc1ccccc1)N1CCN(c2ccccc2)CC1
8.0% | COc1cccc(NC(=O)COC(=O)COc2ccccc2[N+](=O)[O-])c1
-10.1% | CSc1cccc(NC(=O)c2cc(S(=O)(=O)N3CCCC3)cn2C)c1
3.8% | CSc1ncccc1C(=O)Nc1nccs1
6.8% | CS(=O)(=O)Nc1ccc2c(c1)ncn2CCc1ccccc1
7.1% | O=C(Cn1cc(S(=O)(=O)c2ccccc2)c(=O)c2cc3c(cc21)OCO3)Nc1ccc(Cl)cc1
-1.3% | COc1ccc(C(=O)NC(CO)c2nnc(SCc3ccc(Cl)c(Cl)c3)n2C)cc1 (centres undefined)
2.2% | O=C(Nc1ccnn1C1CCN(Cc2cccc(F)c2F)CC1)C1CCCC1
-9.6% | O=C(COC(=O)c1cc(Cl)ccc1O)NCC1CCCO1 (centres undefined)
13.6% | Cc1cc(NC(=O)c2cccs2)n(-c2ccccc2)n1
-6.6% | OCCNCc1cc(Br)ccc1OCc1ccccc1Cl
5.3%&3.0% | CNC(=O)c1cc2c(cn1)[nH]c1ccccc12
0.7% | COc1ccc(C(=O)CN2C(=O)C(C)(C)Oc3ccc(C(=O)N4CCCCCC4)cc32)cc1
-10.3% | O=C(NN=C1CCCC1)c1ccc(O)cc1O
-15.1% | O=C(N/N=C(\CC(=O)c1cccs1)C(F)(F)F)c1ccncc1
13.7% | COc1ccc(/C=C/C(=O)NC(=S)Nc2ccc(S(N)(=O)=O)cc2)cc1
-4.9% | COc1ccc(Cc2nc3ccc(C(=O)N(C)C(C)c4ccon4)cc3o2)cc1 (centres undefined)
-0.7% | COc1ccccc1-c1nnc(SCC(=O)N2CC(C)CC(C)C2)o1 (centres undefined)

Laid out differently: results already given
SMILES,VDR inh
COc1ccc(C(=O)NC(CO)c2nnc(SCc3ccc(Cl)c(Cl)c3)n2C)cc1 (centres undefined),-1.3%
O=C(Nc1ccnn1C1CCN(Cc2cccc(F)c2F)CC1)C1CCCC1,2.2%
O=C(COC(=O)c1cc(Cl)ccc1O)NCC1CCCO1 (centres undefined),-9.6%

Next section
VDR inh | SMILES
-2.4% | CC1CCCCC12NC(=O)N(CC(=O)Nc1ccc3c(c1)OCCCO3)C2=O (centres undefined)
6.5% | Cc1ccc(NC2OC(C(O)CO)C(O)C2O)cc1[N+](=O)[O-] (centres undefined)
39.8µM* | CCOc1ccccc1CNc1ccc(O)cc1
19.4% | CCC(=O)N(Cc1ccco1)Cc1cc2cccc(C)c2n2nnnc12
2.7% | O=C(NCc1ccco1)C1CCN(S(=O)(=O)c2ccccc2C(F)(F)F)CC1

Single entries from above.
VDR inh with O=C(NCc1ccco1)C1CCN(S(=O)(=O)c2ccccc2C(F)(F)F)CC1 : 2.7%
VDR inh with Cc1ccc(NC2OC(C(O)CO)C(O)C2O)cc1[N+](=O)[O-] (centres undefined) : 6.5%
VDR inh with CC1CCCCC12NC(=O)N(CC(=O)Nc1ccc3c(c1)OCCCO3)C2=O (centres undefined) : -2.4%

The list is partial. The share of hits here may be higher or lower than overall.
